# HTT prom inh – HTT promoter inhibition; HEK293 HTT promoter firefly luciferase reporter (activity 0% = vehicle and -100% = no light), 24 h; Potency, µM (series often up to 57.5 µM), for inactives: at the highest dose activity change, negative = inhibition, most hits filed as inhibitors; 48,000 tested, 0.93% active; active = well fitted inhibition curve with a large enough effect; inconclusive = small, poorly fitted or top-dose-only effect; inactive = no such curve, though single readings can be large or run the other way; also: nearly all actives have a fitted effect of over 50% in size
#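 HEK293 luciferase promoter-reporter cells (2,500/well) plated 24 h, then compounds added at up to 57.5 uM final for 24 h at 37 °C. Firefly luminescence by Dual-Glo, normalized to vehicle (0%) and zero RLU (-100%).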
# PMP22 txn prim – modulators of PMP22 gene transcription in S16 Schwann cells; S16 Pmp22-F2sN Schwann cells (luciferase reporters placed in the Pmp22 gene), FLuc/NLuc coincidence luminescence, 24 h; Potency, µM (titrated, usually from 57.5 µM), without a hit: top-dose activity change, negative = inhibition, usual class: inhibitors; 43,000 tested, 2% active; active = clear falling dose curves in both reporters; inconclusive = both reporters move, but less clearly or upward; inactive = either reporter flat; the % is the NLuc reporter signal; also: % is scaled to controls: 0 for no effect and ±100 for the full control effect; some results filed as inactive show a strong effect at the top dose
#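 Rat S16 Pmp22-F2sN cells, 500-1,000/well in phenol red-free DMEM + 10% FBS, compound-treated 24 h (37C, 5% CO2). Luminescence: FLuc read, Stop&Glo added, NLuc read.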
# * = called active by the depositor; u = inconclusive; x = no result given; & = joins results of further samples; [ ] = dose if it differs, or a comment. Potency is read from the fitted curve at half-maximal effect.
SMILES,HTT prom inh,PMP22 txn prim
CC1CCN(S(=O)(=O)c2ccc3c(ccc(=O)n3CC(=O)NCc3ccccc3Cl)c2)CC1,-4%,-17%
Cc1ccc(N(C)S(=O)(=O)c2c(-c3ccccc3)csc2C(=O)O)cc1,-17%,-1%
O=C(NCCc1csc(-c2ccc(F)cc2)n1)c1c(F)cccc1Cl,u,u
O=C(c1ccc(Cl)cc1)N1CCC(c2nc3ccccc3o2)CC1,-28%,u
COc1cc(OC)c(NC(=O)CCCn2nc(C)c3sc4ccccc4c3c2=O)cc1Cl,-7%,0%
COc1cccc(CNC(=O)CCCN2C(=O)CSc3c2c(C)nn3-c2ccccc2)c1OC,u,u
CC(C)Oc1ccc(CNC(=O)c2ccc3c(c2)N(C)C(=O)C2CCCCN32)cc1 (stereo not given),-8%,u
Cc1nn2c(=O)cc(COc3ccc(/C=C(\C#N)C(=O)Nc4ccccc4C)cc3)nc2s1,u,-5%
CCCSc1ncc(Cl)c(C(=O)Nc2sc(C(C)=O)c(C)c2C(=O)OCC)n1,15%,0%
CCS(=O)(=O)NCCc1csc2nc(-c3ccc(C)cc3)nn12,-20%,4%
O=C(NCc1ccco1)c1ccc2c(c1)N(Cc1ccc(Cl)cc1)C(=O)c1ccccc1S2,u,9%
CCOc1ccc(-n2c(SCC(=O)Nc3ccc(F)cc3)nc3c([nH]c4ccccc43)c2=O)cc1,-14%,u
O=C(Cc1ccc(-c2ccccc2)cc1)NCCS(=O)(=O)N1CCN(c2ccccc2F)CC1,u,-4%
COc1ccccc1Oc1c(NS(=O)(=O)c2ccc(C(C)(C)C)cc2)nc(-c2ncccn2)nc1OCCO,-9%,x
CCOC(=O)c1ccc(Nc2cc(-c3ccccc3)nc(C)n2)cc1,-15%,5%
COc1ccc(-n2nc(C(=O)Nc3cc(C)c(Cl)cc3OC)c3c4ccccc4n(C)c3c2=O)cc1,-17%,-16%
Cc1ccc(NC(=O)CCCn2nc(C)c3c(C)n(-c4ccccc4)nc3c2=O)c(Cl)c1,5%,-13%
Cc1cccc(NC(=O)C(Cc2ccccc2)n2cccc2)c1C (stereo not given),-21%,1%
Cc1ccccc1CSc1ncc(Cl)c(C(=O)Nc2nc3ccc(F)cc3s2)n1,-13%,u
O=C(NC1(C(F)(F)F)NC(=O)N(CCc2ccccc2)C1=O)c1ccc(Cl)cc1 (stereo not given),-26%,0%

# 3 structures already listed, ordered by SMILES length, smallest number first.
SMILES,HTT prom inh,PMP22 txn prim
O=C(NCc1ccco1)c1ccc2c(c1)N(Cc1ccc(Cl)cc1)C(=O)c1ccccc1S2,u,9%
CCOc1ccc(-n2c(SCC(=O)Nc3ccc(F)cc3)nc3c([nH]c4ccccc43)c2=O)cc1,-14%,u
COc1ccc(-n2nc(C(=O)Nc3cc(C)c(Cl)cc3OC)c3c4ccccc4n(C)c3c2=O)cc1,-17%,-16%

# (more compounds)
SMILES,HTT prom inh,PMP22 txn prim
COc1cccc(C(=O)N2CCc3cc(OC)c(OC)cc3C2COc2ccc3c(C)cc(=O)oc3c2)c1 (stereo not given),-5%,u
CCCOc1ccc(N2CC(C(=O)Nc3cccc(Cl)c3Cl)CC2=O)cc1 (stereo not given),-4%,u
CCn1cc(S(=O)(=O)c2cc(C)cc(C)c2)c(=O)c2cc(F)c(N3CCCCC3)cc21,-20%,-14%
Cc1ccc(N2CC(c3nnc(NC(=O)c4ccco4)s3)CC2=O)cc1C (stereo not given),-11%,-12%
CCCCN1C(C(=O)c2ccccc2)=C(OC(=O)CC)c2ccccc2S1(=O)=O,u,u
C[N+]1(C)[C@@H]2C[C@@H](OC(=O)C(O)(c3cccs3)c3cccs3)C[C@H]1[C@@H]1O[C@@H]12,0%,x
CN1CCN(C(CNC(=O)C(=O)Nc2cccc(Cl)c2)c2ccc3c(c2)OCO3)CC1 (stereo not given),-16%,u
CCc1ccc(S(=O)(=O)c2nnn3c2nc(Nc2cc(OC)cc(OC)c2)c2cc(Cl)ccc23)cc1,1%,11%
Cc1ccc(C)c(N2CCN(S(=O)(=O)c3ccc4[nH]c5c(c4c3)CCCC5)CC2)c1,-11%,u
O=C(c1ccco1)n1nc(-c2ccc(Cl)cc2)nc1NCc1ccc(F)cc1,-17%,-10%

# Record cards, from the list above. Screens in order: HTT prom inh, PMP22 txn prim
# Shown for O=C(c1ccco1)n1nc(-c2ccc(Cl)cc2)nc1NCc1ccc(F)cc1 : -17%, -10%
# Shown for Cc1nn2c(=O)cc(COc3ccc(/C=C(\C#N)C(=O)Nc4ccccc4C)cc3)nc2s1 : u, -5%
# Shown for CCS(=O)(=O)NCCc1csc2nc(-c3ccc(C)cc3)nn12 : -20%, 4%

# Additional structures:
SMILES,HTT prom inh,PMP22 txn prim
NS(=O)(=O)c1cc2c(cc1Cl)NC(C1CC3C=CC1C3)NS2(=O)=O (stereo not given),0%,x
O=C(Nc1nc2n(n1)C(c1ccccc1)C=C(c1ccccc1)N2)c1ccccc1 (stereo not given),u,u
CC(=O)N(Cc1cccnc1)c1nc2c(F)cc(F)cc2s1,-21%,-1%
COc1ccc(-c2csc3nc(-c4ccccc4)oc(=O)c23)cc1OC,-4%,-36%
COC(=O)c1c(SCC(=O)Nc2cc(OC)cc(OC)c2)[nH]c2ccc(C)cc2c1=O,0%,-6%
O=C(NCc1ccccc1F)c1cccc(NC(=O)N2CCSc3ncccc32)c1,-29%,-1%
Cc1ccc(S(=O)(=O)OCC(=O)Nc2ccc(C(=O)O)c(O)c2)cc1,3%,x
Cc1ccc(NC(=O)C(=O)NCC(c2ccc3c(c2)OCO3)N2CCN(C)CC2)cc1C (stereo not given),-13%,u
COc1ccc(NC(=O)c2ccco2)cc1NC(=O)COc1ccccc1Cl,u,-15%
COc1ccc(Cl)cc1NC(=O)Cn1nc(C(F)(F)F)c2c1CCCC2,u,u

# Shown with two lines to a compound: entries from further up
# Each structure is followed by: HTT prom inh	PMP22 txn prim
CC(=O)N(Cc1cccnc1)c1nc2c(F)cc(F)cc2s1
    -21%	-1%
COc1ccc(-c2csc3nc(-c4ccccc4)oc(=O)c23)cc1OC
    -4%	-36%
COC(=O)c1c(SCC(=O)Nc2cc(OC)cc(OC)c2)[nH]c2ccc(C)cc2c1=O
    0%	-6%

# New compounds follow
SMILES,HTT prom inh,PMP22 txn prim
O=C(CSc1ncc2c(n1)-c1cc(Cl)ccc1N(Cc1ccccc1)S2(=O)=O)NCCc1ccccc1,-11%,u
O=C1C(Nc2ccccc2)=CC(c2ccc(Br)cc2)N1c1ccccc1 (stereo not given),30%,5%
CNCC[C@@H](Oc1ccccc1C)c1ccccc1,2%,x
COc1ccc(NC(=O)CSc2nnc(-c3ccc(OC)cc3)s2)cc1,u,5%
CCOc1ccc(-n2c(SCC(=O)NCc3ccco3)nc3c([nH]c4ccccc43)c2=O)cc1,-27%,u
CCc1ccc(OCC(=O)Nc2ccc(S(=O)(=O)Nc3onc(C)c3C)cc2)cc1,14%,-1%
C[N+](C)(C)CC(=O)O,-5%,x
COc1cccc(NC(=O)CC2C(=O)OCCN2Cc2ccccc2)c1 (stereo not given),-40%,-10%
O=C(O)CCCn1cc(NC(=O)COc2ccccc2F)cn1,-19%,-4%
CCc1ccc(NC(=O)Cn2cnc3sc(C)c(S(=O)(=O)N4CCN(c5ccccc5OC)CC4)c3c2=O)cc1,-8%,u
CC1CCN(S(=O)(=O)c2ccc3c(ccn3CCC(=O)NCc3ccc(N(C)C)cc3)c2)CC1,-19%,u
Cc1ccc(OCC(=O)Nc2ccc(Cl)c(-c3nc4ccccc4[nH]3)c2)cc1C,-21%,10%
CCN1CCN(c2nnc(-n3cccc3C(=O)NCc3ccccc3OC)s2)CC1,-4%,-8%
Cc1ccc(-n2c(SCC(=O)c3ccccc3)nc3c([nH]c4ccccc43)c2=O)cc1,-15%,-2%
Cc1ccc(S(=O)(=O)c2nc(-c3ccccc3F)oc2N2CCCCC2)cc1,u,u
CCCCN(c1ccccc1)c1ncnc2c1cnn2-c1cccc(C)c1,0%,11%
COc1ccc(CCNC(=O)CCn2c(=O)c3ccccc3n(CC(=O)Nc3cc(Cl)ccc3C)c2=O)cc1OC,-10%,-12%
CCc1ccc(NC(=O)c2cc3sc(Cl)cc3n2C)cc1,42%[activator],u
Cc1cccc(N2CCN(CCCNc3ncnc4onc(-c5ccc(Cl)cc5)c34)CC2C)c1 (stereo not given),-11%,u
CN(Cc1ccccc1)C(=O)C1CCN(S(=O)(=O)c2ccc3c(c2)oc(=O)n3C)CC1,u,-21%
O=C(COc1ccc(Cl)cc1)Nc1ccc(-c2nc3ccccc3s2)c(O)c1,-24%,3%
CCC(=O)N1CCc2cc(Br)cc(S(=O)(=O)NCCc3ccc(C)cc3)c21,u,-23%
CCOC(=O)c1ccccc1NC(=O)Cn1ncc2c([nH]c3ccccc32)c1=O,-14%,5%
CCOc1ccc(-c2nc3c(c(SCC(=O)Nc4ccccc4C)n2)Cc2ccccc2O3)cc1,-10%,20%
CCOc1ccc(NS(=O)(=O)c2ccc3[nH]cc(C(=O)N(C)Cc4ccccc4)c(=O)c3c2)cc1,4%,6%
COc1ccc(OC)c(NC(=O)CSc2n[nH]c(-c3ccccc3Cl)n2)c1,-21%,-13%
CC(=O)N1CCCC1c1nc2ccccc2n1Cc1ccccc1F (stereo not given),-2%,17%
CN1CCN(CCCN2c3ccccc3Sc3ccc(Cl)cc32)CC1,-5%&-23%,x
COc1cc2nc(SCc3cccc(Cl)c3)n3nc(CCn4nc(C)cc4C)nc3c2cc1OC,32%[activator],-14%
CCCNCC(O)COc1ccccc1C(=O)CCc1ccccc1 (stereo not given),-1%&-16%,x
O=C(Nc1ccccc1C(F)(F)F)N1Cc2ccccc2Oc2ncccc21,19%,8%
Cc1ccc(NC(=O)CN2C(=O)C(c3ccc(C(C)(C)C)cc3)=NC2(C)C)cc1,-29%,9%
COc1ccccc1NC(=O)Cn1c(=O)n(Cc2ccco2)c(=O)c2oc3ccccc3c21,-11%,-21%
CC(C)(C)c1ccc(Cn2c(Cc3ccccc3)nc3ccccc32)cc1,u,u
CCOc1ccc(-n2c(=O)c3c4c(sc3n(CC(=O)NC(C)CC)c2=O)CCC4)cc1 (stereo not given),19%,-5%
Cc1ccc(S(=O)(=O)N2CCCc3cc(NC(=O)c4ccc(C(F)(F)F)cc4)ccc32)cc1,-34%,2%
O=C(CSc1ncc(S(=O)(=O)c2ccc(Br)cc2)c(=O)[nH]1)NCc1ccc(Cl)cc1,-9%,1%
Cc1cc(NC(=O)CCS(=O)(=O)c2cc(Br)cc3c2N(C(=O)C2CC2)CC3)ccc1Br,-18%,-1%
O=C1OCCN1/N=C/c1ccc([N+](=O)[O-])o1,1%,x
Cc1ccccc1CSc1cn(CCNC(=O)c2cccs2)c2ccccc12,u,u

# Copied from the list:
# O=C(NCc1ccccc1F)c1cccc(NC(=O)N2CCSc3ncccc32)c1 in PMP22 txn prim has -1%
# CC1CCN(S(=O)(=O)c2ccc3c(ccn3CCC(=O)NCc3ccc(N(C)C)cc3)c2)CC1 in HTT prom inh has -19%
# O=C(Nc1ccccc1C(F)(F)F)N1Cc2ccccc2Oc2ncccc21 in PMP22 txn prim has 8%

# Remaining list, next part:
SMILES,HTT prom inh,PMP22 txn prim
Cc1ccc(N2C(=O)CCSC23C(=O)N(Cc2ccccc2)c2ccccc23)cc1F (stereo not given),u,u
CCOC(=O)c1c(S(=O)(=O)N2CCCC(C(=O)N3CCN(c4ccccc4)CC3)C2)c(C)n(C)c1C (stereo not given),-20%,-15%
CS(=O)(=O)c1cccc(CNc2nc(Nc3ccc4c(c3)CCC(=O)N4)ncc2C(F)(F)F)c1,11%,x
CCc1cccc(NC(=O)c2ccc3c(=O)n4nc(Nc5ccccc5OC)sc4nc3c2)c1,u,4.5µM*
COc1ccc(-c2cnc(C)o2)cc1S(=O)(=O)Nc1ccc(C)c(F)c1,u,u
Oc1c(C(c2ccc(Cl)cc2)N2CCCC2)sc2nc(-c3ccco3)nn12 (stereo not given),24%,u
Cc1ccc(O)c(NC(=O)C2=CC(c3ccco3)=NS(=O)(=O)N2C)c1,-20%,-18%
Cc1cccc(C(=O)NNc2ncnc3c2cnn3-c2ccc(C)cc2C)c1,-9%,11%
COC(=O)C1=C(C)NC(=O)C1(NC(=O)c1ccccc1C)C(F)(F)F (stereo not given),-2%,-1%
COc1cc(NC(=O)CN(C)S(=O)(=O)c2ccc3[nH]c4c(c3c2)CCCC4)cc(OC)c1OC,0%,-5%
COc1cccc(-c2nc(S(=O)(=O)c3ccc(C)cc3)c(N3CCCCCC3)o2)c1,u,u
COc1ccc(CCNC(=O)CCc2c(C)nc3cc(-c4ccccc4OC)nn3c2C)c(OC)c1,u,u
CCCn1c2ccccc2c2cnn(CC(=O)Nc3ccccc3OC)c(=O)c21,u,u
COc1ccc(OC)c(NC(=O)C(C)n2c(=O)cc(C)c3c(C)nn(-c4ccccc4)c32)c1 (stereo not given),13%,1%
C/C=C/c1ccc(OC)cc1,-1%,x
CCC(=O)N1CCc2cc(Br)cc(S(=O)(=O)N3CCC(C(=O)Nc4ccccc4CC)CC3)c21,14%,12%
COc1ccc(OC)c2sc(N(CCCN(C)C)C(=O)c3ccco3)nc12,-13%,u
